NPR1 antag – antagonists of human natriuretic peptide receptor Npr1 | P16066 | AID 1347048 | HEK293 hNpr1 GloSensor cGMP, ANP-stimulated luminescence | 1.6% of 76,000 active | Potency, µM (titrated, usually from 46.3 µM), for the others: at the top dose activity change, negative = inhibition, usual class: inhibitors; active = well fitted inhibition curve with a large enough effect; inconclusive = small, poorly fitted or top-dose-only effect; inactive = no such curve, though single readings can be large or run the other way;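 note: nearly all actives have a fitted effect of over 60% in size; nearly all hits also lower the signal before the agonist is added; a reference antagonist and vehicle were the controls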
Target sequence (P16066 whole entry, looked up): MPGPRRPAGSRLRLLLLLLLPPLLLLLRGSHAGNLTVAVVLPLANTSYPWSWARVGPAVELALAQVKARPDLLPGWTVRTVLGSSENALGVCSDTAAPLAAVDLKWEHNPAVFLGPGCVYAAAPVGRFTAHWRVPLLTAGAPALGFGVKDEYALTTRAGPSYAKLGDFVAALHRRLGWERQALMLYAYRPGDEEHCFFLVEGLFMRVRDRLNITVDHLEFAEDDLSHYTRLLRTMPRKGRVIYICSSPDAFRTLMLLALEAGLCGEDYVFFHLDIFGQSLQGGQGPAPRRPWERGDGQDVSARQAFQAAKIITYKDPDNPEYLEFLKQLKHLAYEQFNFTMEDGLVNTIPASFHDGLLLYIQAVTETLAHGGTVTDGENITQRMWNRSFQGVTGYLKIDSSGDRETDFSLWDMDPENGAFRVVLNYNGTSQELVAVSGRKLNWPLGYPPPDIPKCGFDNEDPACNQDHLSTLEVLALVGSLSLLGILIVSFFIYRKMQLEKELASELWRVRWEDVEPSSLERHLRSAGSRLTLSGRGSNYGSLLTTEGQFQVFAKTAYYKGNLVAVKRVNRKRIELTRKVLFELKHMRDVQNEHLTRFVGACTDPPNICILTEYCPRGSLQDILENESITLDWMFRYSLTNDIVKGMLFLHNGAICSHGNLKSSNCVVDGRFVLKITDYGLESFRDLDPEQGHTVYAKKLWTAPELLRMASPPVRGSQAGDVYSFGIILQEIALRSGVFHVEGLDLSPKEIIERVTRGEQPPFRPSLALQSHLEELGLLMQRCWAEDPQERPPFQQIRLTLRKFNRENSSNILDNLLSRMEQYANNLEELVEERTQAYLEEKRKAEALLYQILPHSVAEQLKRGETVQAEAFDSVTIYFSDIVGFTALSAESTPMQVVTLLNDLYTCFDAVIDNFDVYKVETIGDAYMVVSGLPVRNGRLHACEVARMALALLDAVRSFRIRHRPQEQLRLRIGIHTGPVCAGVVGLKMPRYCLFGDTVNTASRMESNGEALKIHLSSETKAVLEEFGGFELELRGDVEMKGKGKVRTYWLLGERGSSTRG
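Compound pre-incubated 30 min at room temperature on GloSensor-loaded HEK293 cells stably carrying hNpr1 and the pGS-40F cGMP biosensor. Stimulation uses hNppA at 0.1 nM final; luminescence is taken at baseline and 20 min post-agonist.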
An asterisk follows results filed as active; ? = inconclusive; [ ] = another dose, or the depositor's remark. % is set by controls: 0 for no effect and ±100 for the full control effect; potency is the fitted concentration of half-maximal effect. Not all compounds are listed; the hit share may differ from the screen's.

SMILES	NPR1 antag
CCOc1cc2c(cn1)NCCN(Cc1ccncc1Cl)C2	35µM*
Cc1cn2nc(C(=O)Nc3ccc(F)c(F)c3)cc2c(N(C)Cc2ccccc2)n1	12%
CC(CCc1ccccc1)NC(=O)CN1C(=O)NC(c2ccc(Cl)cc2)C2=C1COC2=O (stereo not drawn)	-4%
CN1c2cc(C(=O)Nc3ccc(Br)cc3)ccc2C(=O)N2CCCCCC21 (stereo not drawn)	-28%
O=C(Nc1ccc(Cl)nc1)c1cccn2cncc12	-1%[70.6 µM]
COCCOc1ccc(C(=O)N[C@@H]2CN(C(=O)Nc3cccc(C#N)c3)CCC[C@H]2O)cc1	4%
CCc1nc(CC)n2ccn(Cc3ccc(C#N)cc3)c(=O)c12	2%
C[C@H]1CCCN1C(=O)c1nnc(CNCCCn2ccnc2)n1-c1ccccc1	-2%[70.6 µM]
CC(=O)N1C[C@@H](C(=O)NCc2ccc3c(c2)OCO3)[C@H](c2nc(C)no2)C1	2%
NC(=O)[C@@H]1CN(C(=O)CC2CCCC2)C[C@H]1COc1ccccc1	0%

(more compounds)
SMILES	NPR1 antag
Cc1ccc(C(=O)N2CCn3c(nn(-c4ccc(C)cc4)c3=O)C2)cc1	-9%
CC(=O)c1ccc(NC(=O)N2C[C@@H]3C[C@H](C2)c2ccc(NC(=O)c4ccncc4)c(=O)n2C3)cc1	-9%
CC(C)n1nc(OC(C)(C)C(=O)NCCOc2ccccc2)c2cc(CN3CCOCC3)ccc21	-1%
O=C1CC2(CCN(C(=O)c3ccc(C(F)(F)F)cc3)CC2)Oc2ccccc21	-27%
COCCC1(CO)CCCN(Cc2cc(Cl)cc(OC)c2OC)C1 (stereo not drawn)	-4%
O=C(O)CCC(=O)N[C@H]1CCN2C(=O)c3cc(-c4ccccc4F)ccc3NC(=O)[C@H]12	0%[70.6 µM]
CCNC(=O)O[C@@H]1CO[C@H]2[C@@H]1OC[C@@H]2NC(=S)Nc1ccc(N(C)C)cc1	-4%[70.6 µM]
CC(C)[C@@H]1CN(C(=O)c2scc3c2CCCC3)C[C@H]1NS(C)(=O)=O	6%
O=C([C@H]1O[C@H](CCN2CCOCC2)CC[C@@H]1O)N1CCN(c2ccccc2)CC1	0%[70.6 µM]
COC(=O)c1ccccc1Nc1nc(-c2ccccc2)no1	-9%

Next section
SMILES	NPR1 antag
CCc1nnc2ccc(N3CCCCC3)nn12	2%
CC(C)c1ccc(CN2CC(COc3ccccc3)C3(C2)CN(C(=O)c2cn[nH]c2)C3)cc1 (stereo not drawn)	-4%
O=C(c1[nH]ncc1Cl)N1CCOC(Cc2cccc(C(F)(F)F)c2)C1 (stereo not drawn)	-3%
O=C(c1ccccc1)N1CCC(N2CC3CC(C2)[C@H]2CCCC(=O)N2C3)CC1 (stereo partly drawn)	2%
C[C@@H]1CN(Cc2noc(C3CCCC3)n2)CC[C@@]1(O)C1CCC1	7%
Cc1cc(F)ccc1OCC(=O)c1ccc2c(c1)N(C(C)C(=O)N1CCCCC1)C(=O)CO2 (stereo not drawn)	-4%
COc1ccccc1C(=O)N1CCCn2nc(C)c(-c3ccccc3OCc3ccccc3)c21	-2%
Cc1cnc(C2CCNC2)n1Cc1ccc(F)cc1 (stereo not drawn)	11%
COc1ccc(Cc2nc3nccc(-c4ccc(F)cc4)n3n2)cc1	2%
O=C(O)c1cnc(N2CCCCC2)nc1-c1ccccc1	8%

Next records follow:
SMILES	NPR1 antag
CC(Oc1ccccc1)C(=O)N1CCN(C(=O)c2nnn3c2COC(c2ccccc2)C3)CC1 (stereo not drawn)	-25%
CSCC(=O)N1C[C@@H](NC(=O)Nc2ccc(F)cc2F)C[C@H]1C(=O)N[C@@H](Cc1cccs1)C(N)=O	2%
CCn1ncc(S(=O)(=O)N2CCCC(CO)(CC=C(C)C)C2)c1C (stereo not drawn)	-2%
COC(=O)[C@@H]1Cc2ncn(Cc3ccc(OC)cc3)c2CN1S(=O)(=O)c1cccc2c(N(C)C)cccc12	4%
O=C(c1ccc(Cl)cc1)N1CCC2(CC1)OCC(C(=O)N1CCCC1)N2C(=O)c1ccccc1 (stereo not drawn)	-1%
Cc1ccccc1OCc1nc(C2CN(C(=O)NCc3ccccc3)C2)no1	-5%
CCOc1ccc(C(=O)NC2CCCN(c3cc(-c4ccccc4)[nH]n3)C2)cc1OCC (stereo not drawn)	-9%
Cc1ccc(Cl)c(OCC(=O)c2ccc3c(c2)N(CCCC(=O)N2CCOCC2)C(=O)CO3)c1	-9%
O=C(N[C@H]1CCCNC1=O)C1=C[C@@H](NS(=O)(=O)c2cccs2)[C@@H](O)[C@H](O)C1	3%[70.6 µM]
CC(C)NC(=O)N[C@H]1CCN2C(=O)c3cc(/C=C/c4ccccc4)ccc3NC(=O)[C@H]12	5%[70.6 µM]

Part of the list above in order of SMILES length, descending.
SMILES	NPR1 antag
CSCC(=O)N1C[C@@H](NC(=O)Nc2ccc(F)cc2F)C[C@H]1C(=O)N[C@@H](Cc1cccs1)C(N)=O	2%
COC(=O)[C@@H]1Cc2ncn(Cc3ccc(OC)cc3)c2CN1S(=O)(=O)c1cccc2c(N(C)C)cccc12	4%
O=C(N[C@H]1CCCNC1=O)C1=C[C@@H](NS(=O)(=O)c2cccs2)[C@@H](O)[C@H](O)C1	3%[70.6 µM]
O=C(c1ccc(Cl)cc1)N1CCC2(CC1)OCC(C(=O)N1CCCC1)N2C(=O)c1ccccc1 (stereo not drawn)	-1%
CCOc1ccc(C(=O)NC2CCCN(c3cc(-c4ccccc4)[nH]n3)C2)cc1OCC (stereo not drawn)	-9%
CCn1ncc(S(=O)(=O)N2CCCC(CO)(CC=C(C)C)C2)c1C (stereo not drawn)	-2%

More records follow:
SMILES	NPR1 antag
COc1ccc(C(=O)N2C(C(=O)N3CCCC3)COC23CCN(C(=O)c2cccc(C)c2)CC3)cc1 (stereo not drawn)	1%
O=C(Cn1ccn2nc(-c3ccc(F)cc3)c(CO)c2c1=O)NCc1ccc2c(c1)OCO2	4%
Clc1ccccc1C1Cn2cnc(-c3nc(-c4ccncc4)no3)c2CO1 (stereo not drawn)	-6%
CCCNC(=O)N1C[C@@H](Oc2cccnc2)C[C@@H]1C(=O)NCCOC	-9%
Cc1cn2nc(C(=O)NCc3ccc(F)cc3)cc2c(N2CCCC2)n1	15%
COc1ccccc1CN1CCC2(CC1)CC(C(=O)O)N(C(C)=O)C2 (stereo not drawn)	-9%
COc1cccc(CCC(=O)NCCC2CCN(C(=O)Nc3ccc(C)cc3)CC2)c1	0%
COCCOCC(=O)N1CCCN(S(=O)(=O)c2ccccc2)CCC(=O)NCC1	-5%
Cc1ccc(C(=O)N2CCC3(CC2)[C@H](O)C[C@@H]3OCCO)s1	4%
CN(C)c1ccc(-n2cnc3cccnc32)cc1	15%[70.6 µM]

Later entries:
SMILES	NPR1 antag
O=C(CCC[C@H]1NC[C@@H]2C[C@H]1CN(Cc1ccccc1)C2)NCCCN1CCCc2ccccc21	-1%
CCCOc1ccc(CN2C[C@@H]3C(=O)N(CCOC)C(=O)[C@@H]3C2)cc1	-13%
Cc1ccc(NC(=O)Cn2cccc2-c2nc(-c3ccccc3)no2)c(Cl)c1	2%
CCc1cc(CN(C)C(=O)C(c2ccc(C)cc2)N(C)C)on1 (stereo not drawn)	6%
COc1ncc(-c2ccnc(-c3nnc(C)n3CCN3CCOCC3)c2)cn1	7%[70.6 µM]
CN(C)C(=O)CN1C(=O)CO[C@H](c2ccc(NC(=O)c3ccc(C(F)(F)F)cc3)cc2)[C@H]1CO	3%
CC1=C[C@@H](CN(C)CCO)[C@H](C(C)C)C[C@H]1Cc1nnc(-c2ccc(C)cc2)o1	-2%[70.6 µM]
COc1cncc(Nc2cnc3ccc(-c4ccc(OC)c(OC)c4)nn23)c1	-12%[70.6 µM]
O=C(c1ccccc1)N1CCC2(CC1)C(=O)NN=C2c1ccccn1	-26%[70.6 µM]
O=C(c1cccs1)N1CCC2(CC1)N=C(c1ccccc1)NO2	3%

(further entries)
SMILES	NPR1 antag
CCC(=O)N1CCC[C@H](n2c(=O)n(C)c3cccnc32)C1	3%
CCOc1ccc(NC(=O)C2CCN(C(=O)c3ncn4c3COC(c3ccc(F)cc3)C4)CC2)cc1 (stereo not drawn)	0%
O=C(Nc1ccc(F)cc1)C1CN(c2ccccc2)C(=O)N1 (stereo not drawn)	0%[70.6 µM]
O=C(N[C@@H]1CN(c2ncccn2)C[C@H]1CO)c1ccncc1	4%
CNC(=O)N1CCC(N2CC3CC(C2)[C@H]2CCCC(=O)N2C3)CC1 (stereo partly drawn)	-3%
COC[C@@H]1CN(C(=O)CCc2ccccc2OC)C[C@H]1c1nc(C)no1	0%
O=C1NC(=O)C(c2ccccn2)(C2CCN(C(=O)Cn3cnnn3)CC2)N1 (stereo not drawn)	6%
Cc1nnc([C@@H]2CC(F)(F)CN2C(=O)c2ccoc2C)o1	2%
CC(=O)NC1(C)CCCN(Cc2ccc(Oc3ccccc3)cc2)C1 (stereo not drawn)	1%[70.6 µM]
O=C(CCC1CCCC1)NCCC1CCN(C(=O)Nc2cccc(F)c2)CC1	-1%

Going on with the list:
SMILES	NPR1 antag
Cc1cc(CN(C)Cc2ccc(F)cc2)no1	4%[70.6 µM]
COc1cccc(OC)c1C(=O)Nc1ccc2c(c1)CN(Cc1ccccc1F)C(=O)C(C)O2 (stereo not drawn)	-4%
Clc1ccc(C2Cn3nnc(-c4noc(C5CCCC5)n4)c3CO2)cc1 (stereo not drawn)	-22%
CN(C)C(=O)C1CN(C(=O)C2CCCCC2)CC12CCOCC2 (stereo not drawn)	1%
CN1[C@@H](CCC(=O)N2CCCC2)CNC(=O)[C@@H]2[C@H]1CCN2C1CCCCC1	1%[70.6 µM]
Cc1ccc(C(=O)Nc2ccc3c(N4CCOCC4)ncnc3c2)cc1	-17%
N#Cc1cccc(C(=O)Nc2ccc([C@@H](O)[C@H]3COCC(=O)N3)cc2)c1	-1%[70.6 µM]
CC(=O)Nc1ccc(C(=O)N2CCC3(CC2)CN(C)CCN3C)c(C)c1	7%
COC1CCC12CCN(C(=O)c1ccc(C#N)cc1)CC2 (stereo not drawn)	-6%
Cc1ccsc1C(=O)N1CCN(c2cc(-c3ccc(Cl)cc3)[nH]n2)CC1	13µM*

Other results.
SMILES	NPR1 antag
O=C1CCN(C(=O)C2CCN(C(=O)CCc3ccccc3)CC2)CCCCCCN1	3%
CCCCOc1ccc(C(=O)N2CCC[C@H]2c2nc(-c3ccc(C)cc3)no2)cc1	-24%
CN1C[C@H](O)C[C@H]1c1nnc2n1CCN(C(=O)c1ccco1)CC2	2%
O=C(c1ccccc1Cl)N1CCCN(c2cc(-c3ccc(F)cc3)[nH]n2)CC1	?
O=C1NCCCCCN(S(=O)(=O)c2cccc(F)c2)[C@H]2CCCC[C@@H]12	-2%
O=C(Cc1ccsc1)N1CC(c2nnc(-c3ccncc3)o2)C2(CCOCC2)C1 (stereo not drawn)	1%
CN(C)C(=O)c1ccc2c(c1)n(Cc1ccc(F)cc1)c(=O)c1ccnn12	4%
O=C1NC2(CCN(C(=O)c3ccc(C(F)(F)F)cc3)CC2)Oc2ccccc21	0%
O=C1CC(c2ccccc2)N(C(=O)C2CC2)CCCN(C(=O)C2CCCCC2)CCN1 (stereo not drawn)	-4%
CCS(=O)(=O)N1CCCCCCNC(=O)[C@@H]2C[C@@H](C(=O)N3CCN(c4ccccn4)CC3)C[C@@H]21	2%

Three entries already listed, arranged by the number in NPR1 antag, descending:
SMILES	NPR1 antag
O=C1CCN(C(=O)C2CCN(C(=O)CCc3ccccc3)CC2)CCCCCCN1	3%
O=C(Cc1ccsc1)N1CC(c2nnc(-c3ccncc3)o2)C2(CCOCC2)C1 (stereo not drawn)	1%
CCCCOc1ccc(C(=O)N2CCC[C@H]2c2nc(-c3ccc(C)cc3)no2)cc1	-24%

(list continues)
SMILES	NPR1 antag
O=C(c1cnco1)N(CCN1CCCCC1)CC1CCCN(C2CCCC2)C1 (stereo not drawn)	1%
CCc1nc2c(c(-c3ccc(Cl)cc3)n1)CCN(C(=O)c1ccccc1OC)CC2	-1%
Cc1cc(OCC(=O)c2ccc3c(c2)N(CC(=O)NCC2CCCO2)C(=O)CO3)ccc1C(C)C (stereo not drawn)	4%
O=C1OCCC1CCC(=O)N1CCc2c(nc(-c3ccccc3)[nH]c2=O)C1 (stereo not drawn)	4%
COc1ccc(NC(=O)CCC2CCCN(C(=O)c3ccccc3SC)C2)cc1Cl (stereo not drawn)	13µM*
O=C(C1CC1)N1CCOc2ccc(CN3CCc4ccccc4C3)cc2C1	?
CC(C)c1cc(C(=O)N[C@@H]2COCC[C@@H]2Oc2cccc(F)c2)nc(N)n1	5%
CCOc1ccc(NC(=O)C23CCCC=C2N(CC)C(=O)CC3)cc1 (stereo not drawn)	-2%
Cc1ccc(OCc2nc(C3CN(C(=O)C4(c5ccccc5)CC4)C3)no2)cc1	1%
CCOc1ccccc1CNC(=O)c1cc2n(n1)CC(c1ccc3c(c1)OCO3)OC2 (stereo not drawn)	-13%

An excerpt of these results, field by field:
SMILES: Cc1ccc(OCc2nc(C3CN(C(=O)C4(c5ccccc5)CC4)C3)no2)cc1
  NPR1 antag: 1%
SMILES: CCOc1ccccc1CNC(=O)c1cc2n(n1)CC(c1ccc3c(c1)OCO3)OC2 (stereo not drawn)
  NPR1 antag: -13%

The listing continues.
SMILES	NPR1 antag
CCCNC(=O)N1CCC(Oc2ccccc2)C1 (stereo not drawn)	-1%
Fc1ccc(-c2cc3c(cn2)CN(Cc2ccncc2)CCN3)cc1Cl	?
CC(C)(C)n1ccc(C(=O)N2CCN(CC3CC3)[C@@H]3CS(=O)(=O)C[C@@H]32)c1	2%
Cn1cc(C(=O)N2CCCN(S(=O)(=O)c3ccccc3)CCC(=O)NCC2)cn1	-13%
CCOCC(=O)N1CCCC(c2[nH]ccc2C(=O)NC)C1 (stereo not drawn)	18%

High-throughput results as filed in PubChem BioAssay.
